Source: PubChem
KCNQ2 enhance – potentiators of rat KCNQ2 potassium channel | Potassium voltage-gated channel subfamily KQT member 2 (Rattus norvegicus), O88943 | CHO-K1 KCNQ2, FluxOR thallium flux fluorescence; stronger effect = higher value | B-score at 10 µM | 310,000 compounds, 0.54% hits | AID 2239, 2010;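 active = fluorescence ratio B-score at least 3 SD of library B-scores, with initial fluorescence B-score within 3 SD, cut at about 5.3 in these data; same plate scores as AID 2156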;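 also: B-score of peak minus minimum over baseline fluorescence ratio after K+ and Tl+ stimulus; positive B-score means potentiation of KCNQ2 with more thallium influx and brighter signal; only the inactives scoring about 0 or higher are listed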
Target sequence (O88943 whole entry, looked up): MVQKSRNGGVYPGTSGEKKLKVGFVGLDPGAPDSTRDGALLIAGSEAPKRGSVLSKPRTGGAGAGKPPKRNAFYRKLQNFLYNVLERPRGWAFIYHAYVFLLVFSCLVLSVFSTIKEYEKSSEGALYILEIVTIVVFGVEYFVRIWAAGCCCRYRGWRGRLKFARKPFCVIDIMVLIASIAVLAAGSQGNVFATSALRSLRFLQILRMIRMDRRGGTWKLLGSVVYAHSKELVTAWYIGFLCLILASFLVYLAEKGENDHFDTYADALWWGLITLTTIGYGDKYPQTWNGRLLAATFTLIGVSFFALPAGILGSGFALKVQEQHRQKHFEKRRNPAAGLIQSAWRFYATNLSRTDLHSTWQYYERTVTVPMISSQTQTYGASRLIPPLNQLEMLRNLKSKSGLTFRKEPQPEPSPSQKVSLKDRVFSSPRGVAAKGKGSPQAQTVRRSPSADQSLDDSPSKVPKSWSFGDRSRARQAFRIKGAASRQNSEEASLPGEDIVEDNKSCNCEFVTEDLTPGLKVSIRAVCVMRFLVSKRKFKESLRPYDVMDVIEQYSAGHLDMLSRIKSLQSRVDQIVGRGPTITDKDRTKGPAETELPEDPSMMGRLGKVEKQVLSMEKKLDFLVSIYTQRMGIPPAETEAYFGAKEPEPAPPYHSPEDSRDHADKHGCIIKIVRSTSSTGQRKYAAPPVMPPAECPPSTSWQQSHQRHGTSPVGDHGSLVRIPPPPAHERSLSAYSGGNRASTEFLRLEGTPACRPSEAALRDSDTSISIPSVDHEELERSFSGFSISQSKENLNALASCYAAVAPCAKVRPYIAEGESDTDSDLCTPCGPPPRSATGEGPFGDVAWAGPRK
KCNQ2 enhance baseline – also measured in KCNQ2 enhance; calls as there; B-score; compound at 10 µM; measured here: initial fluorescence intensity artifact check;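 brightness before thallium and not channel activity; 0 = typical well and far values either way flag optical interference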
The depositor's hits bear a star. Some of the compounds tested, so the mix of outcomes need not match the whole.

nr | compound | KCNQ2 enhance | KCNQ2 enhance baseline
1 | O=C(O)C[C@H]1c2ccc(C(F)(F)F)cc2S(=O)(=O)N1Cc1ccccc1 | 0.21 | 2.4
2 | Cc1nn(Cc2ccccc2Cl)c(C)c1C(=O)NC1=NCCS1 | 0.58 | 0.13
3 | CC(C)(C(=O)O)n1cncn1 | 0.51 | -0.76
4 | Cn1ccnc1Sc1ccc(/C=N/NC(=O)c2ccccc2[N+](=O)[O-])cc1[N+](=O)[O-] | 0.91 | -0.13
5 | CC1(C)CC(=O)C2=C(C1)OC(N)=C(C#N)C2c1cn(-c2ccccc2)nc1-c1ccc(F)cc1 (centres undefined) | 0.75 | 0.37
6 | COc1ccc(CCN2CCCn3c2nc2c3c(=O)n(C)c(=O)n2C)cc1OC | 0.25 | -0.43
7 | Cn1ccnc1C(=O)C1CCCN(Cc2cn[nH]c2-c2ccc(-c3ccccc3)cc2)C1 (centres undefined) | 0.04 | 2
8 | O=C(O)c1cc(-c2ccc3ccccc3n2)nc2ccccc12 | 1.6 | -0.86
9 | COc1ccc2c(c1OC)C(=O)N(c1ccc(C)c(C)c1)C2=O | 0.28 | -0.26
10 | CCc1noc(C)c1C(=O)N1CCCC(C(=O)c2ccc(OC)c(F)c2)C1 (centres undefined) | 0.06 | 0.4
11 | CCOC(=O)C(NC(=O)NC1CCCCC1)(c1ccccc1)C(F)(F)F (centres undefined) | 2.1 | 0.01
12 | CCc1nnc(NC(=O)CSc2nnc3c4ccccc4n(C)c3n2)s1 | 0.54 | -1.8
13 | CCC(=O)Nc1cccc2c1C(=O)N(C)C2=O | 1.1 | 0.23
14 | C=CCn1cc(-c2cccc(C(F)(F)F)c2)cc(C#N)c1=O | 2 | 1.8
15 | O=[N+]([O-])c1ccc(NC(=S)N2CCN(S(=O)(=O)c3ccccc3)CC2)cc1 | 0.06 | -2.9
16 | Cc1cnc(C(=O)N2CCCC(N3CCN(c4cccc(C(F)(F)F)c4)CC3)C2)cn1 (centres undefined) | 1.2 | -1.2
17 | Cc1nc(=O)c(-c2ccccc2)c(C)n1CCCCCC(=O)O | 0.1 | 0.18
18 | Cc1cc(C)nc(NCc2ccc(Cl)cc2)n1 | 0.06 | 1.2
19 | Cc1ccc(S(=O)(=O)C(C)C(=O)c2ccc3c(c2)OCCO3)cc1 (centres undefined) | 1.3 | -1.3
20 | O=C(O)c1ccc(-c2ncc[nH]2)cc1 | 0.5 | 0.32
21 | COc1ccc(Oc2coc3c(CN4CCOCC4)c(O)ccc3c2=O)cc1 | 0.14 | -0.15
22 | Cc1ccc(S(=O)(=O)CC(=O)N2CCN(c3ccc(F)cc3)CC2)cc1 | 1.9 | -0.62
23 | CC(Oc1ccc(Cl)cc1Cl)c1ccnc2nc(N3CCOCC3)nn12 (centres undefined) | 0.63 | -0.12
24 | CCOC(=O)C1=C(C)NC(C)=C(C(=O)OCC)C1C(=O)OCC(=O)NC(C)C | 0.03 | 0.11
25 | Cc1ccc2c(c1)N(CC(=O)N1CCC(C)CC1)C(=O)c1cccnc1O2 | 0.52 | -0.29
26 | CCOC(=O)c1sc2ncnc(OC)c2c1C | 0.75 | 0.07
27 | COc1ccccc1N1CCN(C(=O)c2cc(-c3cccc(Cl)c3)on2)CC1 | 0.03 | 0.38
28 | OCc1cc(-c2ccc(Cl)c(Cl)c2)on1 | 0.44 | 1.6
29 | CC(C)=CCN1CCN(Cc2nc(-c3ccccc3)cs2)CC1CCO (centres undefined) | 2.9 | -1.2
30 | COc1ccc(C(=O)CSc2n[nH]c(=O)n2Cc2ccco2)cc1 | 1.2 | 0.01
31 | CCOC(=O)c1ccc(NC(=O)C(C)NS(=O)(=O)c2ccc(OC)cc2)cc1 (centres undefined) | 5.8* | 0.3*
32 | COc1cc(/C=N/NC(=O)Cc2nnc(N)s2)cc(OC)c1OC | 0.36 | -0.87
33 | CC(=O)NCCOc1cccc2cccnc12 | 0.29 | 1.8
34 | COc1ccc(OCC(=O)Sc2ccc(C)cc2)cc1 | 0.67 | 2.1
35 | COc1ccc(-c2cc3ccccc3n2CC(O)CN2CCN(CCO)CC2)cc1 (centres undefined) | 0.05 | -3
36 | COc1cccc(-c2nc(CS(=O)(=O)CC(=O)NCc3ccc(Cl)cc3)c(C)o2)c1 | 0.25 | -1.7
37 | CC(=O)c1ccc(NC(=O)c2sc3nc(C)c(C)c(C)c3c2N)cc1 | 1.1 | -0.56
38 | Cc1nc(CNS(=O)(=O)c2ccc(Br)cc2)cs1 | 0.41 | 0.76
39 | N#CCCn1ccc(NC(=O)c2ccc(Cl)cc2)n1 | 0.65 | 0.55
40 | CCCn1c(NC(=O)c2ccc([N+](=O)[O-])o2)nc2ccccc21 | 0.25 | -0.01

Retrieved by structure from the list above, 6 records:
nr | compound | KCNQ2 enhance | KCNQ2 enhance baseline
39 | N#CCCn1ccc(NC(=O)c2ccc(Cl)cc2)n1 | 0.65 | 0.55
30 | COc1ccc(C(=O)CSc2n[nH]c(=O)n2Cc2ccco2)cc1 | 1.2 | 0.01
25 | Cc1ccc2c(c1)N(CC(=O)N1CCC(C)CC1)C(=O)c1cccnc1O2 | 0.52 | -0.29
37 | CC(=O)c1ccc(NC(=O)c2sc3nc(C)c(C)c(C)c3c2N)cc1 | 1.1 | -0.56
29 | CC(C)=CCN1CCN(Cc2nc(-c3ccccc3)cs2)CC1CCO (centres undefined) | 2.9 | -1.2
28 | OCc1cc(-c2ccc(Cl)c(Cl)c2)on1 | 0.44 | 1.6

(listing goes on)
nr | compound | KCNQ2 enhance | KCNQ2 enhance baseline
41 | Cc1sc2nc(SCC(=O)N3CCCC3)[nH]c(=O)c2c1C | 0.13 | 0.53
42 | Cc1cc(C)n(CC(O)CN(c2ccccc2)S(=O)(=O)c2ccccc2)n1 (centres undefined) | 1.1 | -1.9
43 | CC(OC(=O)c1cccc(-n2cnnn2)c1)C(=O)Nc1ccccc1F (centres undefined) | 1 | -2.1
44 | CC(=O)Nc1ccc(NC(=O)COc2cccc3c2OC(C)(C)C3)cc1 | 1.8 | 0.68
45 | N#Cc1sc2nc3c(cc2c1N)CCCC3 | 0.52 | 0.03
46 | CN1/C(=C\C(=O)C[n+]2ccc(C(=O)c3ccccc3)cc2)C(C)(C)c2ccccc21 | 0.95 | 0.17
47 | CCN(CC)C(=O)CSc1nnc(-c2ccc(O)cc2)n1CC1CCCO1 (centres undefined) | 0.85 | 1.7
48 | Cc1ccc(S(=O)CCNC(=O)Cc2ccc(Cl)cc2)cc1 (centres undefined) | 0.78 | 2.2
49 | O=C(C1CCCN(C2CC(=O)N(c3ccc(Cl)cc3)C2=O)C1)N1CCCC1 (centres undefined) | 0.05 | -0.38
50 | CCc1ccccc1NC(=O)N1CCC(NC(=O)C(Cc2ccc(OC)c(OC)c2)NC(C)=O)CC1 (centres undefined) | 0.26 | 1.2
51 | CNCc1nc2ccccc2[nH]1 | 0.08 | 1.1
52 | N#CC1=C(N)SC(N)=C(C#N)C1c1cccc(O)c1 | 0.44 | 0.49
53 | Cc1ccc(-n2c(SCC(=O)N3CCOCC3)nnc2-c2cccnc2)cc1 | 0.05 | -1.1
54 | O=C(N/C(=C\c1ccc([N+](=O)[O-])cc1)C(=O)N1CCOCC1)c1ccco1 | 0.41 | 2.7
55 | CCO/N=C(/C)c1c(O)c(C)c(-c2ccccc2)n(-c2ccccc2)c1=O | 0.39 | 0.01
56 | Cc1nn(-c2ccccc2)c(Cl)c1C1C(C#N)=C(N)OC2=C1C(=O)CC(C)(C)C2 (centres undefined) | 0.3 | -1.1
57 | CC(C)(C)NC(=O)C(c1ccc(O)cc1)N(C(=O)CCC(=O)Nc1nccs1)c1cccc(F)c1 (centres undefined) | 0.31 | -0.18
58 | Cc1ccc(NC(=O)NCc2ccc3c(c2)OCO3)cc1 | 2.5 | -0.23
59 | O=C(NCCc1ccccc1)C(c1ccc(F)cc1)N(C(=O)c1csnn1)C1CC1 (centres undefined) | 1 | 0.06
60 | CCOC(=O)C1=C(C)Nc2[nH]c(=O)[nH]c(=O)c2C1c1cccs1 (centres undefined) | 0.29 | -2.3
61 | C=CCn1c(O)c(N=NC(=S)Nc2ccccc2F)c2ccccc21 | 2.1 | -0.67
62 | O=C(O)c1csc(Br)c1Br | 1.1 | 1.9
63 | C/C(=N\NS(=O)(=O)c1ccc(Br)cc1)c1cccs1 | 0.99 | 0.94
64 | Cc1cccc(-c2ncc(CN3CCN(CC(C)C)C(CCO)C3)cn2)c1 (centres undefined) | 0.17 | -1.4
65 | O=C(NCCC1=CCCCC1)C1CCN(S(=O)(=O)c2cccc3cccnc23)CC1 | 2.3 | 0
66 | O=C(NCc1ccccc1)c1cccc(S(=O)(=O)NCc2ccccc2)c1 | 0.4 | -0.02
67 | COc1cc(S(=O)(=O)N2CCN(C)CC2)ccc1Cl | 0.3 | -0.72
68 | O=C(CCN1C(=O)/C(=C/c2ccccc2)SC1=S)NNC(=O)c1cccnc1 | 1.1 | -0.67
69 | CCOc1ccccc1-n1c(SCC(=O)N2CCCC2)nnc1-c1ccoc1C | 1.2 | -0.21
70 | COC(=O)c1[nH]c2ccc(C)cc2c1NC(=O)NC1CCCCC1 | 1 | -0.03
71 | Cc1cccc(NC(=O)CSc2nc(N)c(NC(=O)c3cccs3)c(=O)[nH]2)c1C | 2.1 | 1.2
72 | CCOC(=O)c1c(C)[nH]c(C(=O)Cn2nnc(-c3ccccc3Cl)n2)c1C | 1.2 | -0.28
73 | CCn1ncc(CN2CCCC(CNC(=O)c3ccc(F)cc3)C2)c1C (centres undefined) | 1.7 | 0.01
74 | O=C(CSc1nncs1)NCCCc1ccccc1 | 1.3 | 0.05
75 | O=C(CSc1nc2c([nH]c3ccccc32)c(=O)n1-c1ccccc1F)NCC1CCCO1 (centres undefined) | 1.9 | -2
76 | CCCCCCCc1c(O)nc(SCCN2CCOCC2)[nH]c1=O | 0.2 | 0.03
77 | C#CCNC(=O)C1=C[C@@H](C)C[C@@H](OCc2ccc(CO)cc2)O1 | 0.61 | 1.7
78 | Cc1ccccc1Nc1nc(-c2cccnc2)cs1 | 1.2 | -0.42
79 | C#CCn1cccc(C(=O)Nc2ccc(OC)cc2)c1=O | 1.2 | -0.16
80 | CN(C)c1cccc(C(=O)N2CCCC(CCC(=O)N3CCN(c4ccccn4)CC3)C2)c1 (centres undefined) | 0.43 | -0.91
81 | COc1ccc(N2CC(C(=O)NCc3n[nH]c(=O)c4ccccc34)CC2=O)cc1 (centres undefined) | 0.7 | -0.82
82 | Cn1nccc1C(=O)NC1CCCc2c1cnn2-c1ccc(F)cc1F (centres undefined) | 0.56 | 2
83 | CC(C)CC1CC(C)(c2csc(NNC(=O)c3ccccc3)n2)OC1=O (centres undefined) | 0.68 | -0.87
84 | NC(CC(=O)O)c1ccc(F)cc1 (centres undefined) | 1.5 | 0.59
85 | Cc1cc(C)c2c(n1)nn1c(NCCN3CCOCC3)cc(C)nc21 | 0.57 | -1.7
86 | COc1ccc(Cn2cc(F)c(=O)n(C)c2=O)cc1[N+](=O)[O-] | 0.28 | 0.68
87 | CCN1CCc2c(sc(NC(=O)c3ccc(S(=O)(=O)N(C)CC4CCCO4)cc3)c2C(N)=O)C1 (centres undefined) | 2.4 | -1.4
88 | COc1ccc(C)cc1NC(=O)c1ccc2c(c1)OCO2 | 0.52 | 0.45
89 | O=C(Nc1cccc(Cl)c1)c1ccc2ncsc2c1 | 1.9 | 0.01
90 | O=C(c1cc(=O)[nH]c2ccccc12)N(Cc1nnc(-c2ccccc2Cl)o1)C1CC1 | 1 | -2.6
91 | O=S(=O)(Cc1cnc(Cl)s1)c1ccccc1 | 0.11 | 0.55
92 | CCCc1ccc(-c2cc(NC(=O)CSc3nnc(N)s3)n(-c3ccccc3)n2)cc1 | 1.6 | -0.92
93 | O=C(NCCCN1CCOCC1)c1ccc(CSc2ccc(Cl)cc2)cc1 | 0.59 | -0.36
94 | CN1CCC(C2(O)c3ccccc3CCc3ccccc32)CC1 | 1.5 | -0.19
95 | CS(=O)(=O)N1CCCC(C(=O)Nc2ccc(F)cc2)C1 (centres undefined) | 1.4 | -1.6
96 | O=C(Nc1nc2ccccc2[nH]1)c1cc(F)cc(F)c1 | 0.31 | 1.6
97 | COc1cccc(CC2(CO)CCCN(Cc3ccc(CN4CCCCC4)s3)C2)c1 (centres undefined) | 1.3 | 0.06
98 | O=C(Nc1ccc2nsnc2c1)c1cccs1 | 0.06 | 1.3
99 | O=C(CSc1nnc2ccccn12)NNC(=O)c1ccc(F)cc1 | 0.84 | -0.57
100 | O=C(N/N=C/c1ccncc1)c1nn(Cc2ccccc2)c(=O)c2ccccc12 | 0.27 | -0.01

(continued)
nr | compound | KCNQ2 enhance | KCNQ2 enhance baseline
101 | Cc1ccc(C)c(S(=O)(=O)N2CCN(Cc3ccc(O)c4ncccc34)CC2)c1 | 1.4 | -0.54
102 | CN1CCN(CC(=O)N2c3ccccc3C(=O)Nc3cccnc32)CC1 | 0.23 | -1.4
103 | COc1cccc(N2C(=NC(=O)CCC3CCCC3)SC3CS(=O)(=O)CC32)c1 (centres undefined) | 1.3 | 0.67
104 | CCN(C(=S)NCCOC)c1cccc2ccccc12 | 0.64 | 0.11
105 | COc1cc(OC)cc(Oc2ccc(S(=O)(=O)N3CCCCC3)cc2[N+](=O)[O-])c1 | 0.3 | 0.41
106 | Cc1ccc(S(=O)(=O)NCC(=O)N(CC(=O)NC2CCCC2)c2ccc3c(c2)OCCO3)cc1 | 0.78 | 1.5
107 | Cc1cc(C)c2[nH]c(=O)c(CN(CC3CCCO3)C(=O)c3cnccn3)cc2c1 (centres undefined) | 0.45 | 2.5
108 | Cc1ccc(NC(=O)COC(=O)C2C3CC4OC(=O)C2C4C3)cc1Cl (centres undefined) | 0.36 | 0.13
109 | Cc1cc(Cl)c(S(=O)(=O)Nc2ccc3c(c2)OCO3)cc1OCC(N)=O | 0.42 | 1.4
110 | Cc1csc(NC(=O)C2C3C=CC(O3)C2C(=O)O)n1 (centres undefined) | 0.04 | -0.24
111 | CC12CCC(=O)N1c1ccccc1C(=O)N2c1ccccc1 (centres undefined) | 0.71 | -0.86
112 | Cc1oc(-c2ccc3c(c2)OCCO3)cc1C(=O)O | 0.27 | -0.76
